Six1-Eya2 blk: blocks human Six1 binding to Eya2; Q15475+O00167; AlphaScreen GST-Six1/His-Eya2 binding, biochemical; hits give low values; control for the full effect not named in the record; activity change, % (no concentration beside the values); actives 0.56% (n = 360,000); in the data active = activity change below about -65%; inconclusive = about -30% to -65%; inactive = above about -30%; also: % is scaled to controls: 0 for no effect and ±100 for the full control effect; compound concentration not given in the record
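AlphaScreen with GST-Six1 and His-Eya2 (5X mix: 250 nM and 500 nM), glutathione donor and nickel acceptor beads; buffer 50 mM Tris pH 8.0, 300 mM NaCl, 1 mM TCEP; 1 h at 37 C in the dark.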
TRPML1 ag: human mucolipin-1 channel agonism; Q9GZU1; TRPML1-expressing cells, Ca2+ dye fluorescence, FDSS; host cell line not named in the record; reference of the full effect not given here; activation, % (concentration not given with the values); actives 0.12% (n = 410,000); AID 624414; in the data active = activation above about 50%; inconclusive = about 30% to 50%; inactive = below about 30%; also: 0% is about no effect; the text of the record puts the active cut at 80%
Target sequence (Q9GZU1 whole entry, looked up): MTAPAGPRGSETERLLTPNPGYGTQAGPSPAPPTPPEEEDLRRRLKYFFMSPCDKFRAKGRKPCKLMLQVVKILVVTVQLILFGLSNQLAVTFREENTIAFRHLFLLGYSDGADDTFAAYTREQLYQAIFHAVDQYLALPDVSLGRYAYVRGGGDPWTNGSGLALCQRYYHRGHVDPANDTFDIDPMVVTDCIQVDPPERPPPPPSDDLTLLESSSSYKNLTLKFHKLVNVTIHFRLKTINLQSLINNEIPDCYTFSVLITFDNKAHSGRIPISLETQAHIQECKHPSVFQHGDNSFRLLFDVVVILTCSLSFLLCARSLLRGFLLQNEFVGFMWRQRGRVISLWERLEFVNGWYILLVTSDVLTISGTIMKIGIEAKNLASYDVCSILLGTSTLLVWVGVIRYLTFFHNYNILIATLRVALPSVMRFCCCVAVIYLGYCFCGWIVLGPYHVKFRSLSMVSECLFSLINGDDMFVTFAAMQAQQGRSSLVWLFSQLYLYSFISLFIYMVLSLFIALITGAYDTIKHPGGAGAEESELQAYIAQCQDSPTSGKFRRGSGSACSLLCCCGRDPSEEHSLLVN
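Calcium fluorescence on an FDSS kinetic reader gave the read-out. Tet-induced TRPML1-DL cells were plated overnight, dye-loaded (Ca8 with quencher, 45-90 min, room temperature, dark), then read 110 s after compound addition, and again 110 s after 4uM final 54-4 (EC80).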
PINK1 modulator: changes PINK1 expression; PINK1 immunofluorescence, high-content cytometry, 24 h; Potency, µM (highest dose often 76.6 µM), inactives show at the highest dose activation (PINK1 increase), usual class: activators; actives 0.2% (n = 410,000); active = well fitted activation curve with a large enough effect; inconclusive = small, poorly fitted or top-dose-only effect; inactive = flat fitted curve, though single readings scatter; cell line not stated here;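 also: potency is read from the fitted curve at half-maximal effect; % of control where 0% means no effect; nearly all actives have a fitted effect of over 65% in size; a mitochondrial uncoupler was the plate control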
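Compound titrations (5 concentrations, 24 h) on a stable cell line; DMSO and CCCP controls. Endpoint: fixed-cell PINK1 immunofluorescence with mitochondrial, cell and nuclear markers, scanned by microplate cytometer.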
TRPML1 blocker: blocks the human TRPML1 channel; TRPML1-inducible cells, Ca2+ dye fluorescence, FDSS; hits give low values; inhibition of EC80 agonist-evoked calcium signal; activity change, negative = inhibition, % (concentration not given with the values); actives 0.02% (n = 390,000); in the data active means activity change below about -50%; inconclusive means about -30% to -50%; inactive means above about -30%;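 also: stimulus is agonist 54-4 at its EC80 concentration; % is scaled to controls: 0 for no effect and ±100 for the full control effect; compound concentration not given in the record; the text of the record puts the active cut at -80%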
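TRPML1-DL cells, Tet-induced overnight (~16 h, 37 °C) at 1,500 cells/well, were loaded with Ca8 no-wash dye plus quencher for 45-90 min at room temperature. Compounds were pinned during FDSS kinetic reading; agonist 54-4 at EC80 (4 uM final) then added.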
D2 potentiator: human D2 receptor positive allosteric modulation. P14416. DiscoveRx D2 beta-arrestin cells, luminescence, 90 min; 100% = 57 uM dopamine signal. potentiation, % (no concentration beside the values). actives 0.23% (n = 360,000). AID 624464; active = potentiation of 50% or more; inconclusive = 30% to 50%; inactive = 30% or less;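 also: compound concentration not given in the record; tested on top of an EC20 dose of dopamine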
Target sequence (P14416 whole entry, looked up): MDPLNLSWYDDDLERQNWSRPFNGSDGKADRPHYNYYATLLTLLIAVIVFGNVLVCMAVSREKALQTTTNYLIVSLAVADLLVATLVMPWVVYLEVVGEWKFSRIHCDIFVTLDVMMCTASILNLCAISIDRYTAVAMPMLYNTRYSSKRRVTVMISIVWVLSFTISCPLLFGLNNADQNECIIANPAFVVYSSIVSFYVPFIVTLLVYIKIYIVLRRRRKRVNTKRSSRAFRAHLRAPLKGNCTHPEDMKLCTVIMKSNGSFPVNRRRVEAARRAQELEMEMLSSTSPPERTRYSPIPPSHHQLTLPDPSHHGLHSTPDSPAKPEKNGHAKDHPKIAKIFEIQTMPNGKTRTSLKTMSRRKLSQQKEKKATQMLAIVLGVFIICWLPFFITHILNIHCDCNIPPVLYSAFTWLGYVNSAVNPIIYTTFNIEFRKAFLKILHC
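D2 cells co-treated with compound plus 50 nM dopamine (EC20) for 90 min at 37 deg C to detect potentiation. Beta-arrestin recruitment was read as enzyme-fragment luminescence after 1 h at ambient temperature. Full response was set by 57 uM dopamine.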
D2 agonist: agonists of human D2 dopamine receptor (beta-arrestin); activation, % (test concentration not listed); AID 624465; actives 0.084% (n = 360,000); DiscoveRx PathHunter D2 beta-arrestin, luminescence, 90 min; 100% = 57 uM dopamine signal; P14416; in the data active = activation above about 40%; inconclusive = about 15% to 40%; inactive = below about 15%; also: compound concentration not given in the record; the text of the record calls up to 30% inactive
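DiscoveRx PathHunter D2 beta-arrestin cells (2,100/well) attached overnight, then compound-stimulated 90 min at 37 C in HBSS/10 mM HEPES/0.1% Tween-20 buffer; beta-galactosidase complementation read by luminescence after 1 h at ambient temperature. Dopamine 57 uM final (EC100) as control.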
* = called active by the depositor; ? = inconclusive; · = no result given; & = joins results of further samples; [ ] = another dose, or the depositor's remark. Outcome played no part in choosing rows; overall some 1% were active at least once.

SMILES	Six1-Eya2 blk	TRPML1 ag	PINK1 modulator	TRPML1 blocker	D2 potentiator	D2 agonist
C=C(C)C(=O)Nc1cccc(C2=NOC3(C2)C[C@@H](C(N)=O)N(C(=O)c2ccc(OC)cc2)C3)c1 (stereo not given in full)	-22	0.4	0.1%	-7	-6	-2.1
C=CCNC(=S)NCc1ccccc1	5	-0.8	0.8%	9	-10	-4.0
CC(C)Oc1ccc(NC(=O)C2CCCNC2=O)cc1 (stereo not given)	-1	-0.4	13%[38.3 µM]	10	-10	-2.7
O=c1c([N+](=O)[O-])cccn1Cc1ccc(F)cc1Cl	1	-1.3	-1.2%	-15	-11	-0.2
O=S(=O)(c1ccc(F)cc1)N1CCN(c2nc(-c3cccnc3)nc3ccccc23)CC1	-8	2.5	-0.4%	1	1	-3.8
COc1cc2c(cc1OC)C(NNC(=O)c1ccc(Br)o1)=NC(C)(C)C2	-3	5.2	2.0%	3	-6	-0.9
C=CCOc1ccccc1CN1CCCCCC1	-1	0.4	0.7%	7	-8	-0.1
CCCCOc1ccc(-c2nnn(CC(=O)NCc3ccco3)n2)cc1	-10	0.2	11%[38.3 µM]	48	2	-0.1
Cc1cc(C)c(OCC(=O)OCC(=O)N2CCN(C(=O)c3ccco3)CC2)c(C)c1	9	-0.5	-2.1%	10	-2	-0.2
O=C(CN(C(=O)c1ccccc1)N1C(=O)CCC1=O)c1cccs1	6	1.4	0.7%	0	-12	-4.1
c1ccc(-c2cc3n(c2)CCc2ccccc2-3)cc1	-8	-0.4	-0.5%	6	5	1.1
CC(C)CNc1oc(-c2ccc(F)cc2)nc1C#N	-10	0.9	5.1%	24	-4	-1.1
Cc1cc(-c2csc(N)n2)c(C)n1CCC(C)C	-4	0.3	-1.5%	-8	-5	-1.8
CC(C)NC(=O)c1cccc(Cn2cc(Cl)cn2)c1	-2	-0.8	3.1%	5	4	-0.9
O=C(Nc1ccc(N2CCOCC2)c(F)c1)c1cccs1	6	0.3	-0.3%	-1	-5	-2.7
CCn1c(C(C)NC(=O)c2cccs2)nc2ccccc21 (stereo not given)	1	-0.7	1.4%	2	-7	-3.0
O=C(NCc1cccnc1)c1ccc(Cl)c(Cl)c1	12	-0.7	0.2%	8	-5	-1.7
COc1ccc(-c2cc(C(=O)N3CCCCCC3)c3cc(C)ccc3n2)cc1	-1	-1.7	1.2%	21	-6	-1.7
OCc1cn(-c2ccccc2)nn1	0	0.2	-0.9%	16	-1	1.0
CCN(CC(=O)NC1CCS(=O)(=O)C1)Cc1nc2c(Br)cc(Br)cc2c(=O)[nH]1 (stereo not given)	1	-0.2	3.0%	-26	-1	3.7
Cc1ccc2cc(C#N)c(N3CCCN(S(=O)(=O)c4ccccc4)CC3)nc2c1C	51	1.7	-3.1%[38.3 µM]	62	6	-0.1
Cc1ccc(Nc2sc(C(=O)c3ccccc3)c(N)c2C(=O)Nc2ccc(Cl)cc2)cc1	·	0.2	40µM*	13	·	·
CCN(C(=O)COC(=O)c1cc(-c2ccccc2)nc2c1c(C)nn2-c1ccc(C)cc1)C1CCS(=O)(=O)C1 (stereo not given)	9	-0.5	16%	-17	-8	1.1
Cc1ccnc2nc(C(=O)Nc3nnc(-c4ccc(Cl)cc4)o3)nn12	-16	-0.8	1.2%	2	18	0.1
COCCNC(=S)Nc1cc(OC)c(NC(=O)c2ccco2)cc1OC	-15	0.7	-1.4%	8	-2	5.8
Cc1oc(-c2ccc(C(F)(F)F)cc2)nc1CN(Cc1ccccn1)C[C@@H]1CCC(=O)N1	2	0.7	0.1%	2	-10	-3.0
Cc1c(NC(=O)CSc2ncnc3ccccc23)c(=O)n(-c2ccccc2)n1C	-7	-0.4	-1.7%	2	-11	-0.8
CCOc1ccc(OCCCC(=O)N2CCN(S(=O)(=O)c3ccccc3C#N)CC2)cc1	-3	0.1	0.9%	-8	20	1.6
Cn1cccc1C(=S)N1CCOCC1	-1	-0.6	-1.6%	22	-3	-3.3
OC(CCCN1CCCCC1)(c1ccccc1)c1ccccc1	2	0.3	2.4%	0	-25	-5.9
Cc1cccc(NC(=O)COc2cccc3c(=O)n(C)ccc23)c1C	·	-1.3	3.1%	2	·	·
COc1cc2c(cc1OC)C(COc1ccc3c(C)cc(=O)oc3c1)N(C(=O)c1ccc(C)cc1)CC2 (stereo not given)	·	-0.6	-0.1%	33	·	·
CCOC(=O)CSc1nnc(CNC(=O)Cc2ccccc2)n1C	5	0.7	1.3%[38.3 µM]	0	-7	-1.1
O=S(=O)(Nc1cccnc1)c1ccc(Cl)cc1	-1	4.9	-1.0%	4	-3	-0.3
O=C(O)c1cccc(N2C(=O)/C(=C/c3ccc(SCc4ccc(Cl)cc4)o3)SC2=S)c1	?	4.3	3.5%	26	-2	3.5
CCC(C(=O)NC(C)(C)C)N(Cc1ccco1)C(=O)CNS(=O)(=O)c1ccc(OC)cc1 (stereo not given)	-4	-0.3	-1.7%	-3	2	3.3

Part of the list above, set out differently.
Below each compound: Six1-Eya2 blk | TRPML1 ag | PINK1 modulator | TRPML1 blocker | D2 potentiator | D2 agonist
COc1ccc(-c2cc(C(=O)N3CCCCCC3)c3cc(C)ccc3n2)cc1
→ -1 | -1.7 | 1.2% | 21 | -6 | -1.7
OCc1cn(-c2ccccc2)nn1
→ 0 | 0.2 | -0.9% | 16 | -1 | 1.0
CCN(CC(=O)NC1CCS(=O)(=O)C1)Cc1nc2c(Br)cc(Br)cc2c(=O)[nH]1 (stereo not given)
→ 1 | -0.2 | 3.0% | -26 | -1 | 3.7
Cc1ccc2cc(C#N)c(N3CCCN(S(=O)(=O)c4ccccc4)CC3)nc2c1C
→ 51 | 1.7 | -3.1%[38.3 µM] | 62 | 6 | -0.1
Cc1ccc(Nc2sc(C(=O)c3ccccc3)c(N)c2C(=O)Nc2ccc(Cl)cc2)cc1
→ · | 0.2 | 40µM* | 13 | · | ·
CCN(C(=O)COC(=O)c1cc(-c2ccccc2)nc2c1c(C)nn2-c1ccc(C)cc1)C1CCS(=O)(=O)C1 (stereo not given)
→ 9 | -0.5 | 16% | -17 | -8 | 1.1
Cc1ccnc2nc(C(=O)Nc3nnc(-c4ccc(Cl)cc4)o3)nn12
→ -16 | -0.8 | 1.2% | 2 | 18 | 0.1
COCCNC(=S)Nc1cc(OC)c(NC(=O)c2ccco2)cc1OC
→ -15 | 0.7 | -1.4% | 8 | -2 | 5.8
Cc1oc(-c2ccc(C(F)(F)F)cc2)nc1CN(Cc1ccccn1)C[C@@H]1CCC(=O)N1
→ 2 | 0.7 | 0.1% | 2 | -10 | -3.0
Cc1c(NC(=O)CSc2ncnc3ccccc23)c(=O)n(-c2ccccc2)n1C
→ -7 | -0.4 | -1.7% | 2 | -11 | -0.8
CCOc1ccc(OCCCC(=O)N2CCN(S(=O)(=O)c3ccccc3C#N)CC2)cc1
→ -3 | 0.1 | 0.9% | -8 | 20 | 1.6
Cn1cccc1C(=S)N1CCOCC1
→ -1 | -0.6 | -1.6% | 22 | -3 | -3.3
OC(CCCN1CCCCC1)(c1ccccc1)c1ccccc1
→ 2 | 0.3 | 2.4% | 0 | -25 | -5.9
Cc1cccc(NC(=O)COc2cccc3c(=O)n(C)ccc23)c1C
→ · | -1.3 | 3.1% | 2 | · | ·
COc1cc2c(cc1OC)C(COc1ccc3c(C)cc(=O)oc3c1)N(C(=O)c1ccc(C)cc1)CC2 (stereo not given)
→ · | -0.6 | -0.1% | 33 | · | ·
CCOC(=O)CSc1nnc(CNC(=O)Cc2ccccc2)n1C
→ 5 | 0.7 | 1.3%[38.3 µM] | 0 | -7 | -1.1

(continued)
SMILES	Six1-Eya2 blk	TRPML1 ag	PINK1 modulator	TRPML1 blocker	D2 potentiator	D2 agonist
CCOC(=O)C1C(=O)CC(C)(O)C(C(=O)OCC)C1c1ccc(Br)cc1 (stereo not given)	0	-0.5	-0.8%	6	-21	-4.4
O=C(/C=C/c1c(Cl)nc2ccccn12)Nc1ccc(F)cc1	-10	0.9	1.2%	5	-13	-1.3
CCC(=O)N1CCC(C(N)=O)(N2CCCCC2)CC1	4	-0.1	2.5%	4	1	1.5
CCOc1c(Cl)cc(CNc2ccc(N3CCCC3)cc2)cc1OC	?	-0.2	2.0%	-9	-1	5.8
COc1ccc(N2CCN(C(CNC(=O)c3cccc(OC)c3)c3cccnc3)CC2)cc1 (stereo not given)	·	1.2	-0.3%	7	·	·
O=C(Nc1nc(-c2ccccc2)cs1)C1CCCO1 (stereo not given)	3	0.1	-1.4%[38.3 µM]	-13	1	1.1
Cc1noc(C)c1NC(=O)Nc1ccc2c(c1)C(=O)N([C@H](C)CO)C[C@H](C)[C@@H](CN(C)C(=O)Nc1ccc(C(F)(F)F)cc1)O2	-5	-0.1	0.2%	-12	3	-0.3
O=C1CCCCCN1CP(=O)(O)CCc1ccccc1	5	0.1	1.9%[38.3 µM]	6	8	0.5
O=c1c2ccccc2n2c(-c3cccc(Cl)c3)nnc2n1Cc1ccccc1	-3	3.6	3.5%	8	-6	-1.8
COc1cc(C(=O)NCc2cc3cc(Cl)ccc3n2C)cc(OC)c1OC	-2	0.9	3.1%	-7	-1	-1.4
Cc1ccc(C)c(S(=O)(=O)N(C)c2ccc(OC(=O)C3CCN(C(=O)Nc4ccccc4)CC3)cc2)c1	0	1.3	2.0%	-2	1	0.5
CN(C)S(=O)(=O)n1cc(/C=C(\NC(=O)c2ccccc2F)C(=O)NCCCn2ccnc2)c2ccccc21	-3	-0.2&0.5	-0.4%&-2.2%	-7&-4	-5	-4.6
O=C1Cn2c(nc3ccccc32)N1c1cccc(C(F)(F)F)c1	3	1.2	5.2%[38.3 µM]	36	-8	-1.4
O=S(=O)(NCC1COc2ccccc2O1)c1ccc2ccccc2c1 (stereo not given)	3	4.3	6.7%	20	-1	2.2
Cc1cc(C)c(NC(=O)Cn2c(=O)n(-c3ccc(CC(=O)NCC4CCCO4)cc3)c(=O)c3ccccc32)c(C)c1 (stereo not given)	1	0.2&-0.8	2.1%&-1.3%	43&-15	-9	-5.2
O=C(O)c1ccccc1C(=O)OC1CC2CCC1C2 (stereo not given)	1	0.4	-0.1%	7	-7	-4.4
COC(=O)C1=C(C)N(C)C(=O)NC1c1cccc2ccccc12 (stereo not given)	-7	0.2	-0.2%	-2	0	3.0
Cc1nc(SCC(=O)N2CCOCC2)c2c3c(sc2n1)CCC3	1	0.0	-0.4%	-15	-4	1.9
O=C(NCCCn1ccnc1)c1cc(Br)c(Br)s1	-3	-0.5	0.9%	4	-11	2.2
CCOc1ccccc1NC(=O)CCCNC(=O)Cn1cnc2sc(C)c(C)c2c1=O	-1	0.1	3.0%	32	-8	-2.9

Compound activity (PubChem BioAssay)
